TRPML1 agonist – agonists of human TRPML1 channel | Q9GZU1 | TRPML1-expressing cells, Ca2+ dye fluorescence, FDSS; host cell line not named in the record; reference of the full effect not given here | 410,000 compounds, 0.12% hits | activation, % (concentration not given with the values); in the data active = activation above about 50%; inconclusive = about 30% to 50%; inactive = below about 30%; further: 0% is about no effect; the text of the record puts the active cut at 80%
Target sequence (Q9GZU1 whole entry, looked up): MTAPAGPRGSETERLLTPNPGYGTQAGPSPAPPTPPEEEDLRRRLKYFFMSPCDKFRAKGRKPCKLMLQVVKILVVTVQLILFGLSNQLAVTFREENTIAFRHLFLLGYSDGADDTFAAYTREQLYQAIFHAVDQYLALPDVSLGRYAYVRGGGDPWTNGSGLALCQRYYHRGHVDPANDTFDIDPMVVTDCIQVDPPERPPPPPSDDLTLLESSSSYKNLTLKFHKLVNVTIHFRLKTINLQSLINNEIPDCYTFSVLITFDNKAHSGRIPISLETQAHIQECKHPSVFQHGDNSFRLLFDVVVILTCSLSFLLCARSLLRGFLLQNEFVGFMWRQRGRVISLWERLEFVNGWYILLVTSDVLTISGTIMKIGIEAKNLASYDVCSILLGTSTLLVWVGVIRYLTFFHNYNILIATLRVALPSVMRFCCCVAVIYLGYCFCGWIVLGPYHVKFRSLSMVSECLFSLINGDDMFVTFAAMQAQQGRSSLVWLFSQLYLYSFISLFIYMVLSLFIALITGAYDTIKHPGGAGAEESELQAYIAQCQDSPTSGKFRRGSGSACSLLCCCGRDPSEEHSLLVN
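Calcium fluorescence on an FDSS kinetic reader gave the read-out. Tet-induced TRPML1-DL cells were plated overnight, dye-loaded (Ca8 with quencher, 45-90 min, room temperature, dark), then read 110 s after compound addition, and again 110 s after 4uM final 54-4 (EC80).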
gsp antagonist – gsp mutant antagonism; gsp-mutant cells, cAMP HTRF, 30 min; control for the full effect not named in the record; Potency, µM (series often up to 76.9 µM), for the others: at the highest dose activity change, negative = inhibition, most hits filed as inhibitors; 340,000 compounds, 0.4% hits; AID 624288; active = falling curve of any shape with a large fitted effect; inconclusive = falling curve, mostly with a smaller effect; inactive = flat or rising curve; cell line not stated here;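 further: intracellular cAMP measured with PDE inhibitor Ro 20-1724 present during compound exposure; potency means the concentration at half of the fitted maximal effect; on the % scale 0 is the no-effect control and ±100 the full control effect; nearly all actives have a fitted effect of over 65% in size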
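Cells, 2000/well, grown 16–24 h in DMEM 10% FBS with 0.5 mg/ml G418, then compounds plus […] (300 uM addition stock), 30 min at 37C. cAMP read by HTRF (cAMP-d2 and anti-cAMP antibody-K in lysis buffer) after 30 min RT.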
TRPML1 blocker – human mucolipin-1 channel inhibition. Q9GZU1. TRPML1-inducible cells, Ca2+ dye fluorescence, FDSS; hits give low values; inhibition of EC80 agonist-evoked calcium signal. activity change, negative = inhibition, % (test concentration not listed). 390,000 compounds, 0.02% hits. AID 624415; in the data active means activity change below about -50%; inconclusive means about -30% to -50%; inactive means above about -30%;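 further: stimulus is agonist 54-4 at its EC80 concentration; on the % scale 0 is the no-effect control and ±100 the full control effect; compound concentration not given in the record; the text of the record puts the active cut at -80%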
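TRPML1-DL cells, Tet-induced overnight (~16 h, 37 °C) at 1,500 cells/well, were loaded with Ca8 no-wash dye plus quencher for 45-90 min at room temperature. Compounds were pinned during FDSS kinetic reading; agonist 54-4 at EC80 (4 uM final) then added.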
Menin-MLL FL inh – inhibitors of human menin-MLL interaction, wild-type MLL peptide; FP activity change, % at 61.4 µM; Fluorescence polarization, fluorescein-MLL peptide displacement from menin; 290,000 tested, under 10 active; AID 1766; inconclusive = falling polarisation curve, or a change in total fluorescence; inactive = total fluorescence flat and polarisation flat or rising; no compound was filed as active; the % refers to the polarisation; negative = inhibition;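 further: % of control where 0% means no effect; inhibitors lower the polarisation; unlabelled MLL peptide was the positive control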
ClpP mod – qHTS Assay for Activators of ClpP. AID 651965, 2013. purified B. subtilis ClpP, FRET peptide cleavage, 20 min. ATP-dependent Clp protease proteolytic subunit (Bacillus subtilis (strain 168)), P80244. Potency, µM (doses to about 57.5 µM), without a hit: at the top dose activity change, negative = active. 340,000 compounds, 1.9% hits; active = well fitted falling curve with a large enough effect; inconclusive = small, poorly fitted or top-dose-only effect; inactive = no such curve, though single readings can be large or run the other way; further: potency means the concentration at half of the fitted maximal effect; the source files actives as falling curves though it sought activators and does not explain the sign; nearly all actives have a fitted effect of over 65% in size; many hits overshoot -100%
Target sequence (P80244 whole entry, looked up): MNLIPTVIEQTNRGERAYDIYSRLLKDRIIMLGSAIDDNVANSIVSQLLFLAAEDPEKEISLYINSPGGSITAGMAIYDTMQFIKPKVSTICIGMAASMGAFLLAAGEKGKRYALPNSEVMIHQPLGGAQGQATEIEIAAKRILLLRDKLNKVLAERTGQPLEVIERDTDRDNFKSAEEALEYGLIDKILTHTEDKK
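ClpP 10 microg/mL final, pH 8 Tris/KCl buffer with BSA, glycerol, Tween-20; compound pinned in; FRET-FV substrate; RT 20 min; Ex320/Em430; ΔFRET vs ADEP 5.8 microM, DMSO, no enzyme.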
gsp ag – agonists of gsp mutant (McCune-Albright syndrome) | gsp mutant cells, cAMP HTRF, 30 min; control for the full effect not named in the record | Potency, µM (series often up to 76.9 µM), inactives show at the top dose activation (cAMP increase), usual class: activators | 340,000 compounds, 0.13% hits; active = well fitted activation curve with a large enough effect; inconclusive = small, poorly fitted or top-dose-only effect, or another doubt; inactive = no such curve, though single readings can be large or run the other way; cell line not stated here;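 further: phosphodiesterase inhibitor Ro 20-1724 added with compounds to block cAMP breakdown; potency means the concentration at half of the fitted maximal effect; nearly all actives have a fitted effect of over 60% in size; about a fifth of the inactives were tested at one dose only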
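Cells in DMEM/10% FBS with G418 were pretreated with compounds in DMSO plus […] (300 uM stock) for 30 min at 37C. cAMP was measured by HTRF (cAMP-d2 plus anti-cAMP antibody-K) after 30 min at room temperature.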
An asterisk follows results filed as active; ? = inconclusive; nt = not tested or not shown; & = joins results of further samples; [ ] = another dose, or the depositor's remark.

SMILES	TRPML1 agonist	gsp antagonist	TRPML1 blocker	Menin-MLL FL inh	ClpP mod	gsp ag
CS(=O)(=O)c1nc(S(=O)(=O)c2ccc(Cl)cc2)c(NCc2ccccn2)s1	-0.3	-2.3%	22.1	2.8	nt	15.6%[15.4 µM]
Cc1ccc(C(=O)Nc2sc3c(c2C(=O)O)CCC(C)C3)o1 (configuration not stated)	-0.9	-28.4%	-2.7	nt	-12.5%	-1.5%
O=C(CNS(=O)(=O)c1ccccc1)N1CCCC1	-0.3	0.0%	5.4	-4.9	nt	7.5%[15.4 µM]
CCOC(=O)c1cnc(-c2ccccc2)nc1-c1ccccc1	-0.1	-10.4%	-4.8	1.5	nt	-18.7%
COc1cc(NC(=O)N2c3ccccc3Sc3ccccc32)cc(OC)c1	0.9	nt	1.8	nt	?	nt
CCNC(=O)COC(=O)c1ccc(S(=O)(=O)N2CCCCCC2)cc1	-0.4	8.9%	7.5	-0.8	-1.7%	-49.1%[inhibitor]
Cc1ccc(C)c(NS(=O)(=O)c2cc(C(=O)NCc3ccccn3)ccc2C)c1	-0.8	8.5%	1.1	nt	-1.0%	-3.4%[15.4 µM]
COc1ccc([N+](=O)[O-])cc1NS(=O)(=O)c1cccc(C(=O)NCCCN2CCCC2=O)c1	-0.1	0.5%	8.5	nt	nt	-5.4%
COC(=O)c1ccc2c(=O)n(CCO)c(=S)[nH]c2c1	0.3	-4.4%	2.0	1.6	4.1%	0.3%
Cc1cc(=O)oc2c(C)c(OC(=O)c3ccco3)ccc12	0.0	2.0%	-12.2	nt	31.5%	-5.2%
CCc1cc2c(cc3c(=O)n(CC(=O)NCCc4ccc(OC)c(OC)c4)ncn32)s1	1.2	nt	-22.1	nt	-2.5%	nt
O=C(CC1(O)C(=O)N(CN2CCOCC2)c2ccccc21)c1ccccc1 (configuration not stated)	0.9	1.8%	20.8	2.4	-3.3%	-37.2%[inhibitor]
O=C(O)C1CCN(C(=O)CSc2nc3ccccc3c(=O)n2-c2ccc(Cl)cc2)CC1	6.5	3.9%	22.9	0.1	-3.4%	11.5%
CCc1cccc(NC(=O)Cc2ccc(OC)c(OC)c2)c1	0.1	4.1%	-2.9	1.6	-3.2%	-34.4%[inhibitor]
O=c1cc(N2CCCCC2)c(-c2ccccc2)nn1Cc1ccc(Cl)cc1	1.3	-0.8%[15.4 µM]	10.1	3.8	-3.4%	-15.2%
COc1ccccc1N1CCN(C(=O)c2ccc3c(Cl)c4c(nc3c2)CCCC4)CC1	0.7	-3.6%	9.8	3.6	-0.5%	32.1%
CC1=NN(C(C#N)c2ccc([N+](=O)[O-])cc2)C(C)(C)C1 (configuration not stated)	0.6	-9.7%	-1.3	-1.1	nt	11.2%[15.4 µM]
COc1ccc(C(C(=O)NC(C)(C)C)N(CCc2ccc(OC)c(OC)c2)C(=O)CCC(=O)Nc2cc(C)on2)cc1 (configuration not stated)	0.0	-0.6%	-12.3	1.6	nt	5.1%
O=C(c1ccc2ccccc2c1)C1CCCN(C(=O)CN2C(=O)CSC2=O)C1 (configuration not stated)	-0.5	0.1%	-5.7	6.0	nt	12.7%
CCCCC(=O)OCC(=O)c1cc(C)n(-c2c(C)n(C)n(-c3ccccc3)c2=O)c1C	2.2	5.2%	2.9	3.8	1.9%	14.7%
CC1=C([N+](=O)[O-])C(c2ccccc2Cl)NC(=O)N1C (configuration not stated)	-0.3	6.2%	1.7	1.2	nt	?
Cc1ccc(-c2cc(C(=O)OCC(=O)Nc3cc(C)on3)c3ccccc3n2)c(C)c1	7.1	?	12.0	2.1	-9.8%	-4.8%
COc1ccc([C@H]2CC(=O)C=C(c3cccc(Br)c3)C2)cc1	1.4	-8.6%	9.8	nt	1.5%	8.7%
COc1ccc(NC(=O)CNc2ccccc2C(C)=O)cc1S(=O)(=O)N1CCOCC1	-0.6	1.1%	11.1	nt	-1.3%	-7.6%
Cc1cccc(C)c1NC(=O)CN(C)C(=O)Cn1c(=O)cnc2ccccc21	-0.1	4.6%	-0.6	-5.1	1.6%	?
Cc1ccnc2nc(C(=O)Nc3ccc(S(=O)(=O)N4CCCC4)cc3)nn12	0.8	-2.0%	-0.1	-25.7	-4.4%	-19.5%
CC(C)C(=O)Nc1nnc(SCC(=O)NC2CCCC2)s1	0.7	-1.6%	14.3	-0.6	nt	10.0%
COc1ccc(-n2c(=O)c3ccccc3n(CC(=O)Nc3cc(C)on3)c2=O)cc1OC	-0.6	6.4%	12.8	3.2	0.7%	-14.8%
COc1ccc2nc(C)cc(Sc3nc4ccccc4s3)c2c1	1.1	15.4%	-3.0	-10.2	1.4%	11.0%[15.4 µM]
COc1ccc(-c2nc3c(n2O)CCC/C3=N\O)cc1	0.3	14.8%	22.2	-3.0	?	1.4%
CCOC(=O)COc1cc(C)c(Cl)cc1C(=O)c1ccn2nc(-c3ccc(OC)cc3)cc2n1	-0.2	nt	-14.2	nt	2.7%	nt
Cc1ccccc1-c1nc(CS(=O)CC(=O)NC2CCCC2)c(C)o1 (configuration not stated)	-1.2	-3.6%	-6.8	nt	-2.4%	-0.9%
Cc1ccccc1-n1nc2c(c1NC(=O)c1c(-c3ccccc3Cl)noc1C)CS(=O)(=O)C2	-0.6	-9.3%	9.1	-0.9	-1.2%	-22.3%
O=C(/C=C/c1cccs1)Nc1ccc(N2CCOCC2)c(S(=O)(=O)Nc2cc(Cl)ccc2Cl)c1	0.0	-7.0%	-1.2	11.0	-16.3%	-10.7%
O=C(CN1C(=O)NC2(CCCC2)C1=O)NCCC1=CCCCC1	1.0	0.7%	4.6	2.8	1.2%	0.0%
Cc1cc(C(=O)CSc2nnnn2-c2ccccc2)c(C)n1-c1ccc2c(c1)OCO2	0.7	-7.6%	33.0	nt	1.2%	-37.7%[inhibitor]
Cc1ccc2nc(COc3ccccc3NC(=O)Nc3ccc(F)c(Cl)c3)cc(=O)n2c1	0.2	nt	-13.0	nt	-7.7%	nt
N#Cc1ccccc1S(=O)(=O)N1CCN(CC(=O)NCC2(N3CCOCC3)CCCCC2)CC1	-1.3	-14.8%	-11.2	nt	-0.7%	-73.3%[inhibitor]
CCCN(CCC)CCNC(=O)c1cc2c(-c3ccc(Cl)cc3)nn(C)c2s1	0.8&0.0	2.6%	-7.5&28.8	0.2	3.9%&4.3%	?
COc1ccc(-c2nc(C)c(CCNC(=O)C(=O)Nc3ccccc3C#N)s2)cc1OC	4.6	nt	7.7	nt	4.2%	nt
COc1ccccc1CN(CC(=O)NCC1CCCO1)C(=O)CNS(=O)(=O)c1ccc(C)cc1 (configuration not stated)	-0.7	-10.1%	7.1	3.8	-4.5%	3.7%
CCOc1ccc(CCNC(c2cccc(Cl)c2)c2nnc(-c3ccccc3)o2)cc1OCC (configuration not stated)	0.7	nt	-4.3	nt	-0.8%	nt
O=C(CCCN1C(=O)c2cccc3cccc(c23)C1=O)Nc1ccon1	0.0	-1.8%	8.4	-5.3	nt	4.1%[15.4 µM]
CCOC(=O)C1=CCN(S(=O)(=O)c2ccccc2)C1c1ccc(C)cc1 (configuration not stated)	3.2	nt	29.8	nt	-3.1%	nt
Cc1cccc(Sc2nc(-c3ccccc3)ncc2C(=O)O)c1	1.3	-10.8%	-2.5	-1.8	nt	-13.1%
Cc1cc(C)n(CC(O)COc2ccccc2Br)n1 (configuration not stated)	-0.2	2.6%	17.0	-1.6	-1.0%	-8.1%
COc1ccc(C(=O)Nc2cc(Cl)cc(Cl)c2)c(OC)n1	-0.7	-1.1%	4.1	-1.8	-3.7%	5.0%
COc1ccccc1NC(=O)c1c(NCc2ccc(C)o2)sc2c1CCCCC2	-0.7	nt	6.8	nt	-0.1%	nt
COc1ccc(OC)c(Nc2nc(C)nc3c2oc2ccccc23)c1	1.3	-12.1%	34.1	3.9	5.0%	-6.4%
O=C(c1ccc(C(=O)N2CCOCC2)s1)N1CCOCC1	-0.8	5.0%	-12.4	3.9	-0.1%	-7.0%
FC(F)(F)Oc1ccc(NC(=S)Nc2ccc(OC(F)(F)F)cc2)cc1	1.8	-7.1%	-25.2	2.4	0.3%	3.4%
O=C(CCSc1nc(-c2ccco2)cc(C(F)(F)F)n1)NCCN1CCOCC1	0.2	nt	-1.0	-1.6	nt	2.6%[15.4 µM]
C=CCn1cc(C(=O)NCCCOC)c(=O)c2cc(S(=O)(=O)N3CCC(C)CC3)ccc21	0.4	-15.3%	7.9	nt	-19.1%	-4.6%
O=C(COC(=O)c1ccc2ccccc2c1O)NCC(F)(F)F	0.2	12.7%	-11.5	2.4	-18.2%	10.0%
CC(=O)Nc1ccc(S(=O)(=O)N(C)CC(=O)Nc2ccccc2N2CCCC2)cc1	-0.4	-6.0%	-4.6	nt	0.4%	-4.0%
OCCN1CCN(Cc2cc(Cl)c3cccnc3c2O)CC1	0.3	-2.5%	26.0	-5.3	-2.2%	-24.3%
O=C(Nc1cccnc1)c1ccc(-c2cc(Cl)ccc2Cl)o1	-0.7	-11.9%	2.9	0.0	nt	3.4%[15.4 µM]
CN(C)C(=O)c1ccc(NC(=O)c2ccccc2SCC(=O)N2CCCC2)cc1	0.0	-1.7%	-8.2	nt	3.3%	-2.5%
CC(C)n1c(N2CCN(C(=O)Nc3ccccc3)CC2)nc2ccccc21	0.0	-7.5%	9.6	-0.1	0.8%	14.5%
Cc1ccc(/C([O-])=C(/C(=S)NCc2ccccc2)[n+]2cccc(CO)c2)cc1[N+](=O)[O-]	-0.5	0.0%	-17.0	-5.4	nt	11.0%

More records
SMILES	TRPML1 agonist	gsp antagonist	TRPML1 blocker	Menin-MLL FL inh	ClpP mod	gsp ag
COc1ccc2c(CC(=O)Nc3ccc(OC)nc3)coc2c1	-1.1	-2.8%	-11.2	-8.4	-2.3%	3.4%[15.4 µM]
Cc1cc(O)c(C(c2ccc(F)cc2)N2CCCCC2)c(=O)n1Cc1ccco1 (configuration not stated)	-0.4	nt	18.8	nt	0.4%	nt
Cc1ccc2nc(NC(=O)CSc3[nH]c(=O)ncc3C)sc2c1	1.0	nt	-26.9	nt	1.8%	nt
Cc1ccc(-n2cnc3c(sc4nc(N5CCOCC5)c5c(c43)CCCC5)c2=O)cc1	2.9	-6.3%	-8.3	-2.2	-8.0%	15.8%
CC(=O)N1CCCC(N2CCN(c3cccc(C(F)(F)F)c3)CC2)C1 (configuration not stated)	1.0	6.3%	3.8	2.7	-4.3%	9.1%

Screening results as filed in PubChem.
